High-throughput results (PubChem BioAssay)
MbtI inh – blocks the Mycobacterium tuberculosis siderophore enzyme MbtI; AID 493033; purified MbtI enzyme, fluorescence intensity read-out; P9WFX0; 100,000 compounds, 0.89% hits; inhibition, %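 (about 17 µg/mL by stock and volumes)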;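 active = above 50% in both replicates, above 80% if mildly self-fluorescent; inactive = the rest, strongly fluorescent compounds included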;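 note: 0% = mean of negative and 100% = mean of positive controls; one replicate is shown; some compounds called inactive have numbers as strong as hits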
Target sequence (P9WFX0 whole entry, looked up): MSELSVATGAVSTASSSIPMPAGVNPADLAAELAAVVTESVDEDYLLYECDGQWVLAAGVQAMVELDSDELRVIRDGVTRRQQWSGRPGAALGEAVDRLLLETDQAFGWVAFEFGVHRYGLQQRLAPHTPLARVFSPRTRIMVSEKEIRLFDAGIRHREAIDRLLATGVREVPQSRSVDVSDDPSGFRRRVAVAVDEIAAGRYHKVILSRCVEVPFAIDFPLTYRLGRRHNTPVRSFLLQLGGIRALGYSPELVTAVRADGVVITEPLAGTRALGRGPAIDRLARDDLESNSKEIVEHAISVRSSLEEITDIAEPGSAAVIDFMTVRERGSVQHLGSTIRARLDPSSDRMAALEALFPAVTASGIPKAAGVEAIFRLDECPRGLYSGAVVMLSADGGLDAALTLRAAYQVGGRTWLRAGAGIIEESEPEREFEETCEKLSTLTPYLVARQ
Polio RdRp inh – poliovirus RNA polymerase inhibition; P03300; poliovirus polymerase elongation, fluorescence polarization; active compounds read low; % elongation, % (compound at 16.7 µg/mL); 150,000 compounds, 0.66% hits; in the data active = % elongation below about 90%; note: some results filed as inactive read as strong as hits
Target sequence (P03300 1749-2209 limits assumed): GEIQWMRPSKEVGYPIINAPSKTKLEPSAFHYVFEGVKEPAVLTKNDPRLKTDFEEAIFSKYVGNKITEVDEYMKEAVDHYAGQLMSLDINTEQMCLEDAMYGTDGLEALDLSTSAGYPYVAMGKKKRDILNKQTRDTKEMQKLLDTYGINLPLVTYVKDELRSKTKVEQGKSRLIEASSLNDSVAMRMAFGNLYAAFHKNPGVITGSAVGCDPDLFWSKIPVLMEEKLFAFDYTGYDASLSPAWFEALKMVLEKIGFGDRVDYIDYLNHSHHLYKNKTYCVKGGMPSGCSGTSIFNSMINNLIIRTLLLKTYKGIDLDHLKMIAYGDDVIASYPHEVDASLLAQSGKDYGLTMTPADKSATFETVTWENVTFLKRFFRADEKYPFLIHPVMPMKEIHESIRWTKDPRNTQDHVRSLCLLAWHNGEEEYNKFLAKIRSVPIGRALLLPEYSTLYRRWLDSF
MenB inh – blocks the Mycobacterium tuberculosis MenB enzyme; 100,000 compounds, 0.43% hits; P9WNP5; AID 540299; MenB enzyme assay, absorbance read-out; some hits fall short of the stated cut; inhibition, %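 (about 12 µg/mL by stock and volumes)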;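 active = mean of two replicates above 30%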;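 note: 0% = no compound and 100% = wells with inactive enzyme; the first replicate is given; strong numbers were not always called active; inactives centre near -10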
Polio RdRp inh intensity – second read-out of Polio RdRp inh, no call of its own (marks repeat the call); % elongation; measured here: total intensity read-out; formula for this scale not given here;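 total fluorescence in place of polarization; lower means less elongation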
Numbers without * were called inactive; / = not tested or not shown; & = joins results of further samples. Rows were taken by chance, and some 1.9% of all compounds hit somewhere here.

SMILES	MbtI inh	Polio RdRp inh	Polio RdRp inh intensity	MenB inh
CC(=O)O[C@H]1CC[C@@]2(C)C(=CC[C@@H]3[C@@H]2CC[C@]2(C)C(=O)CC[C@@H]32)C1	-17.6	101.0	99.0	-2.7
Cc1oc(C(C)(C)C)cc1C(=O)NCCO	0.7	100.0	103.0	17.1
COc1cc(OC)cc(-c2nc(=S)n3ccsc3n2)c1	8.6	103.0	107.0	-25.0
CCOC(=O)c1[nH]c(C)c(C(=O)C(C)C)c1C	/	103.0	103.0	-13.0
COC(=O)c1cc(C)sc1NC(=S)NC(C)c1cn(C)nc1C (stereo not given)	-2.7	100.0	102.0	-26.5
Cc1cc(C)c2sc(=NC(=O)CN3C(=O)CCC3=O)n(C)c2c1	-6.7	102.0	109.0	-8.6
O=C1c2ccccc2C(=O)N1CCN1CCN(c2ncc(C(F)(F)F)cc2Cl)CC1	5.7	/	/	-20.9
COc1ccccc1Nc1ncc(C(=O)NCCCN2CCC(C)CC2)c2ccccc12	-8.9	101.0	96.0	-18.8
CSc1ccccc1NC(=O)C1C2CCC(C2)C1C(=O)O (stereo not given)	-7.4	100.0	101.0	-1.9
Cc1cc(O)cc(=O)[nH]1	6.0	104.0	105.0	-104.0
Cc1ccc(C#N)c(SCc2nnc(-c3ccc(Cl)cc3)o2)n1	3.1	100.0	105.0	-15.9
CC(C)NCC(O)COc1cccc2[nH]ccc12 (stereo not given)	2.4&-29.9	99.0&99.0	98.0&101.0	5.6&6.8
O=S1(=O)N=C(N(Cc2cccs2)c2ccc(O)cc2)c2ccccc21	/	96.0	97.0	2.0
CCOc1nc(NC(=O)NC(=O)c2cccs2)nc(-c2ccccc2)n1	/	107.0	109.0	-6.8
Cc1ccc(CNC(=O)Cc2ccc(-n3c(=O)c4sccc4n(Cc4ccccc4)c3=O)cc2)cc1	-3.9	99.0	88.0	-26.8
CCCn1cc(S(=O)(=O)c2ccc(C)cc2)c(=O)c2cc(F)c(N3CCN(CC)CC3)cc21	24.9	101.0	107.0	-7.0
Cc1ccc(S(=O)(=O)N2CCCC(C(=O)O)C2)cc1 (stereo not given)	9.9	99.0	103.0	13.1
Cc1ccccc1C(=O)C(C#N)c1nc2ccc(C(F)(F)F)cc2s1 (stereo not given)	-16.8	103.0	109.0	/
COC(=O)CSc1nc2sc3c(c2c(=O)n1CC1CCCO1)CCCC3 (stereo not given)	-5.2	102.0	105.0	-25.6
Cc1ccc2c(c1)N(C(C)C(=O)NCc1cccs1)C(=O)CO2 (stereo not given)	2.3	101.0	100.0	6.4
O=C(C1CCCN1S(=O)(=O)c1ccc(Cl)cc1)N1CCc2ccccc2C1 (stereo not given)	-13.8	104.0	105.0	/
COc1ccc(-c2oc3ccc(OC)cc3c(=O)c2O)c(OC)c1	/	100.0	104.0	-7.5
CCNc1nc(SCC(=O)NC(=O)NCc2ccccc2)nc2sc3c(c12)CCN(C)C3	6.2	101.0	116.0	-2.1
CC1CCCCN1Cc1c(C#N)c2ccccc2n1C (stereo not given)	-3.1	100.0	102.0	17.6
O=C(NC1CCCc2ccccc21)c1ccc(S(=O)(=O)N2CCOCC2)cc1 (stereo not given)	17.6	103.0	100.0	10.1

Two neighbouring compounds out of the list so far, for reference:
SMILES	MbtI inh	Polio RdRp inh	Polio RdRp inh intensity	MenB inh
CC1CCCCN1Cc1c(C#N)c2ccccc2n1C (stereo not given)	-3.1	100.0	102.0	17.6
O=C(NC1CCCc2ccccc21)c1ccc(S(=O)(=O)N2CCOCC2)cc1 (stereo not given)	17.6	103.0	100.0	10.1

Back to the main list with the five entries that preceded the break.
SMILES	MbtI inh	Polio RdRp inh	Polio RdRp inh intensity	MenB inh
O=C(C1CCCN1S(=O)(=O)c1ccc(Cl)cc1)N1CCc2ccccc2C1 (stereo not given)	-13.8	104.0	105.0	/
COc1ccc(-c2oc3ccc(OC)cc3c(=O)c2O)c(OC)c1	/	100.0	104.0	-7.5
CCNc1nc(SCC(=O)NC(=O)NCc2ccccc2)nc2sc3c(c12)CCN(C)C3	6.2	101.0	116.0	-2.1
CC1CCCCN1Cc1c(C#N)c2ccccc2n1C (stereo not given)	-3.1	100.0	102.0	17.6
O=C(NC1CCCc2ccccc21)c1ccc(S(=O)(=O)N2CCOCC2)cc1 (stereo not given)	17.6	103.0	100.0	10.1
O=C(O)c1ccccc1C(=O)OCCO	-4.0	103.0	102.0	-25.5
O=C(N1CCCC1)N1CCC(c2ccc3c(c2)OCO3)CC1	-6.3	101.0	100.0	-25.9
CC(C)CC(=O)Nc1ccc(C(=O)COC(=O)CSc2nnc(-c3ccc4c(c3)OCO4)o2)cc1	27.3	99.0	99.0	-14.5
CCN(CC)CCN1C(=O)c2ccccc2NC1c1ccccc1F (stereo not given)	-121.4	105.0	102.0	-53.9
Cc1c(C(=O)c2ccccc2)c2ccccn2c1CCC#N	-12.7	100.0	104.0	/
CCCC(CCC)C(=O)Nc1ncc2c(n1)CCCC2=O	-3.2	97.0	100.0	10.4
CNC(=O)NC(=O)C(C)Oc1ccccc1-c1ccccc1 (stereo not given)	-9.3	103.0	104.0	-2.5
CCN(Cc1nc(-c2ccccc2)no1)C(=O)c1ccc2c(c1)OCO2	1.9	101.0	102.0	-39.6
Cc1ccc(C)c(-n2c(SCc3ccccc3C#N)nnc2-c2cc3sccc3n2C)c1	5.2	104.0	96.0	-39.1
O=C(COc1ccc(S(=O)(=O)NCc2ccccc2)cc1)N1CCCC1	-11.8	106.0	102.0	-41.3
CC(=O)C1=C(O)C=C(c2ccc(C)o2)CC1c1ccccc1 (stereo not given)	/	105.0	113.0	-57.5
Cc1ccc(-c2oc(NC(=O)C3CCCC3)c(C#N)c2-c2ccc(C)cc2)cc1	-70.5	107.0	100.0	-20.3
CCCNC(=O)Cn1nc(C)n2c(cc3ccccc32)c1=O	1.1	103.0	100.0	-11.6
N#Cc1ccc(C(=O)N2CCN(C(=O)c3ccccc3)CC2)cc1	-6.6	105.0	109.0	-2.2
CCC(=O)c1c(O)ccc2c(C)cc(=O)oc12	-68.0	100.0	103.0	2.9
O=C(CN1CCC(NC(=O)C2CCCCC2)CC1)Nc1cccc(F)c1	-1.5	102.0	104.0	13.7
CC1=NN(c2ccccc2)C(=O)C12C1C=CC(C1)C2(C(F)(F)F)C(F)(F)F (stereo not given)	0.4	99.0	99.0	-24.5
COc1ccc(-c2cc(=O)n(CCC#N)[nH]2)cc1	-20.6	101.0	104.0	-36.0
Cc1ccccc1NC(=O)NC(=O)CC#N	-2.5	100.0	97.0	-40.6
Cc1nn(Cc2ccccc2)c(Cl)c1C(=O)Nc1nnc(-c2ccccc2)o1	-0.3	115.0	116.0	-41.5
COC(=O)c1scc2c(Sc3ccc(Cl)cc3)cc(C(F)(F)F)nc12	-8.0	105.0	109.0	-16.0
CCC(=O)Nc1ccc2c(c1)N(CC)C(C)(C)CC2C (stereo not given)	-12.2	110.0	134.0	-7.4
CC1(C)[C@H]2CCC1(CS(=O)(=O)N(C1CCCCC1)C1CCCCC1)C(O)C2 (stereo not given in full)	/	102.0	110.0	-4.2
CCCc1cc(=O)n2[nH]c(C(F)(F)F)nc2n1	-6.4	101.0	102.0	-5.4
COc1ccc(N2CCN(CCCNC(=O)C3CCCN(S(=O)(=O)c4cnc[nH]4)C3)CC2)cc1 (stereo not given)	-7.6	105.0	104.0	-3.3

Results in Polio RdRp inh and MenB inh, for 3 of the compounds above:
structure	Polio RdRp inh	MenB inh
CC1=NN(c2ccccc2)C(=O)C12C1C=CC(C1)C2(C(F)(F)F)C(F)(F)F (stereo not given)	99.0	-24.5
CCN(CC)CCN1C(=O)c2ccccc2NC1c1ccccc1F (stereo not given)	105.0	-53.9
CNC(=O)NC(=O)C(C)Oc1ccccc1-c1ccccc1 (stereo not given)	103.0	-2.5

Other records:
SMILES	MbtI inh	Polio RdRp inh	Polio RdRp inh intensity	MenB inh
COc1ccc(OC)c(NC(=S)NCCN2CCOCC2)c1	26.5	102.0	102.0	-4.0
CCOC(=O)c1c(C)n(OCc2ccccc2)c2ccc3nonc3c12	104.2	101.0	107.0	-11.6
CCS(=O)(=O)C(=C(Nc1ccccc1)Nc1ccccc1)S(=O)(=O)CC	-8.9	104.0	107.0	-13.4
CSC(=NS(=O)(=O)c1ccccc1)SC	0.3	100.0	106.0	-0.4
CCOc1ccc(/C=C(\C(=O)N2CCCC2)n2ccccc2=O)cc1	28.8	100.0	102.0	8.3
CC1CCCCN1C(=O)CSCC(=O)Nc1nc(-c2ccc(Cl)s2)cs1 (stereo not given)	20.0	102.0	98.0	-34.9
CCc1nn(CC(=O)NC2CC2)c(=O)c2cc3occc3n12	11.8	102.0	103.0	-3.2
COc1ccc(-c2c(C)nn3c(N4CCc5ccccc54)cc(C)nc23)cc1OC	2.5	99.0	95.0	-18.8
N#C/C(=C\c1ccco1)C(=O)Nn1cnnc1	11.8	100.0	98.0	-2.6
COCCNP(=O)(c1ccccc1)c1nc2ccccc2s1 (stereo not given)	9.2	102.0	107.0	-14.5
O=C(COC(=O)c1ccncc1)c1ccc2ccccc2c1	/	109.0	112.0	-13.3
CC(COc1ccc(C(C)C)cc1)NC(=O)c1ccco1 (stereo not given)	-10.0	104.0	92.0	-33.0
Cc1cc(C(=O)n2ccc(-c3cccs3)n2)c(C)o1	6.7	111.0	111.0	-1.2
CCCNS(=O)(=O)c1ccc(OCC(=O)O)c(Cl)c1	-2.5	100.0	103.0	-75.0
Nc1ccc(S(=O)(=O)N2CCCC(C(=O)O)C2)cc1 (stereo not given)	-24.1	102.0	102.0	32.6
CCc1cccc(OCC(=O)Nc2c[nH]c(=O)[nH]c2=O)c1	-2.1	100.0	105.0	17.4
COc1ccccc1-n1c(-c2ccccc2)cnc1SCC#N	3.6	114.0	138.0	-10.5
Cn1c(=NC(=O)CCSc2ccccc2)sc2cc(Cl)ccc21	10.9	102.0	103.0	0.5
COc1ccc(Cn2c(CCC(=O)NCc3ccccc3)nc3cccnc32)cc1	-10.3	104.0	108.0	-13.1
Cc1cc(C)n2cc(CSCc3ccccc3)nc2n1	94.6	101.0	97.0	/
O=C(NCc1ccco1)c1cc(=O)c2ccccc2o1	-0.6	103.0	99.0	/
CCn1c(SCC(=O)NCc2ccc(C)cc2)nc2c(c1=O)SCC2	10.9	100.0	99.0	-13.1
Cc1cc(=O)n(CC(=O)Nc2ccc(F)cc2)c(SCC(N)=O)c1C#N	14.1	104.0	103.0	-35.3
CN(C(=O)COC(=O)c1ccc2ccccc2n1)C1CCCCC1	-6.8	101.0	100.0	/
Cc1ccc2nc(NC(=O)CSc3nnc(Cc4ccccc4)o3)sc2c1	3.1	100.0	98.0	-27.4
SMILES	MbtI inh	Polio RdRp inh	Polio RdRp inh intensity	MenB inh
O=C(Cc1ccccc1F)Nc1cccc(-c2nn[nH]n2)c1	-3.6	103.0	104.0	5.3
CC(=O)NC12CC3CC(C1)CC(C(=O)NCC(c1ccco1)N(C)C)(C3)C2 (stereo not given)	-10.1	107.0	112.0	-26.6
CCC(C)Cn1c(CC(C)(C)C)nc2ccccc21 (stereo not given)	-11.7	101.0	105.0	-21.0
CCCn1c(CCC(=O)Nc2ccccc2)nc2cccnc21	1.0	99.0	102.0	-6.1
CCC(C)(C)N1CC(=O)N(Cc2ccccc2)C(c2ccc(OC)cc2)C1=O (stereo not given)	-2.9	101.0	103.0	-32.5
NC(=O)N1CCNCC1	-2.8	101.0	102.0	5.2
CC(C)(C)c1oc(C(=O)Nc2ccc3c(c2)oc2ccccc23)cc1COCC(F)(F)F	/	97.0	103.0	-26.7
Cc1nc2ccccc2c2oc(C(=O)NCCN3CCN(C)CC3)cc12	23.0	93.0	92.0	-6.8
CS(=O)(=O)N(c1ccc(F)cc1)C1C=CS(=O)(=O)C1 (stereo not given)	5.5	105.0	105.0	-19.7
O=C1NNC(c2ccccc2)=N/C1=C\c1ccccc1	6.9	103.0	100.0	-6.7
Cc1ccc(C(=O)CSc2nc(C)cc(SCC#N)n2)cc1	-25.5	103.0	103.0	-16.1
O=C(OCc1cc(=O)n2cc(Br)ccc2n1)c1cnccn1	-4.1	103.0	105.0	-10.1
CCOc1cccc(/C=N/n2c(-c3ccc(Cl)cc3)n[nH]c2=S)c1O	78.8*	85.0*	93.0*	-109.3
CS/C(=N\S(=O)(=O)c1cccs1)Nc1ccc(N2CCOCC2)cc1	-3.5	104.0	105.0	-3.7
CCCc1cc(=O)[nH]c(SC(C)C(=O)NC(=O)NC)n1 (stereo not given)	-2.0	104.0	112.0	4.0
N#Cc1c2c(c(N3CCN(CCO)CC3)n3c1nc1ccccc13)CCC2	0.0	100.0	103.0	-8.0
CC(c1ccco1)N(C(=O)c1ccc(Cl)s1)c1ccccn1 (stereo not given)	0.9	100.0	103.0	9.5
O=C(OC(C(=O)NC1CCCC1)c1cccnc1)C1=Cc2ccccc2OC1 (stereo not given)	-7.9	103.0	102.0	-51.5
CC1Sc2nnc(-c3ccc(OC(F)F)cc3)n2N=C1c1ccc(NS(C)(=O)=O)cc1 (stereo not given)	3.4	104.0	99.0	-9.4
COCc1c(C(=O)NCc2ccc(OC)cc2)oc2ccccc12	-11.6	104.0	109.0	-15.6
CCN(Cc1ccccc1)C(=O)c1cc2sccc2n1Cc1ccccc1	-0.6	106.0	103.0	-56.4
CC1CCCCN1S(=O)(=O)c1cccs1 (stereo not given)	-4.0	100.0	102.0	11.5
Cc1ccc(C2=C/C(=C\c3cccnc3)C(=O)O2)cc1	5.2	102.0	102.0	-27.4
